# StopGo reporter = FMDV 2A StopGo reporter, luciferase signal; human cells with a luciferase reporter of 2A StopGo recoding; control for the full effect not named in the record; Potency, µM (titrated, usually from 57.9 µM), for inactives: at the top dose signal change, negative = less light; 410,000 compounds, 1.2% hits; AID 1159524; active = well fitted falling curve with a large enough effect; inconclusive = small, poorly fitted or top-dose-only effect; inactive = no such curve, though single readings can be large or run the other way; tested in HEK293T cells; further: nearly all actives have a fitted effect of over 45% in size; luciferase light after 4 h
# RE007 growth inh = less growth of the S. pombe RE007 Vpr strain. AID 651644. 360,000 compounds, 0.21% hits. S. pombe RE007 Vpr strain, BacTiter-Glo ATP luminescence, 24 h; control for the full effect not named in the record. Potency, µM (series often up to 92.2 µM), for the others: top-dose activity change, negative = less growth; active = well fitted falling curve with a large enough effect; inconclusive = small, poorly fitted or top-dose-only effect; inactive = no such curve, though single readings can be large or run the other way;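 further: nearly all actives have a fitted effect of over 50% in size; the assay follows cell death caused by Vpr and the record does not say whether a fall means rescue or toxicity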
#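 Fission yeast RE007 carrying one integrated HIV-1 vpr copy, seeded at OD 0.01 in PMG+AL medium with 23 nL pinned compound. Grown 24 h at 30 degrees; viability read by BacTiter-Glo luminescence after 5 min.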
# * marks the source's active call; other numbers are inactive results; ? = inconclusive; [ ] = another dose, or the depositor's remark. On the % scale 0 is the no-effect control and ±100 the full control effect; potency means the concentration at half of the fitted maximal effect. These rows are one share of the data; rates above refer to the full screens.
# Value order – StopGo reporter | RE007 growth inh
> CC1(C(=O)Nc2ccc3c(c2)OCO3)CCN1Cc1ccccc1OC(F)F (stereo not drawn)
    ? | -21%
> COc1cc(-c2cc(NC(C)=O)c3ncc(-c4cc(OC)c(OC)c(OC)c4)n3c2)cc(OC)c1OC
    ? | -10%
> COc1ccc([C@H]2CN(c3ccccc3)C(=O)[C@@H]2CC(=O)Nc2ccccc2)cc1
    -15% | -8%
> Cn1c(NCCc2ccncc2)nc2cc(-c3cccc(C(F)(F)F)c3)sc2c1=O
    -3% | 6%
> C=C1[C@@H](OC(C)=O)[C@]23C[C@@H]1[C@@H](OC(C)=O)CC2[C@]12C4C[C@H]3[C@H]1N(CC)C[C@]4(C)CC[C@@H]2O (stereo partly drawn)
    -17% | 8%
> CN1CCCC(C)(C(=O)Nc2ccc(-n3cccc3)cc2)C1 (stereo not drawn)
    -20% | -24%
> COc1ccc(C(=O)Nc2nc(CC(=O)NCc3c(F)cccc3F)cs2)cc1
    -21% | -3%
> COc1cccc(/C=N/NC(=O)c2nnn(-c3nonc3N)c2CN(C)C2CCCCC2)c1
    -7% | 12%
> COc1ccc(CN(C)C(=O)C(CCSC)NS(=O)(=O)c2ccc3c(c2)OCCO3)c(OC)c1OC (stereo not drawn)
    -6% | 5%
> C[C@@H]1CN(S(=O)C(C)(C)C)[C@@H](CCO)/C1=C\CCO (stereo partly drawn)
    -10% | -6%
> CCCCCCN1C[C@@H](n2cc(-c3ccc(F)cc3)nn2)[C@H](O)C[C@@H]1c1ccccc1
    -10% | 12%
> Cc1onc(-c2ccccc2)c1C(=O)NC1CCCCC1C (stereo not drawn)
    -25% | 13%
> CN(C)C(=O)CNc1ccn2nc(-c3cccc(OCCN4CCOCC4)c3)cc2n1
    -10% | -7%
> CCOC(=O)C(Cc1ccc(O)cc1)NC(=O)c1cc2c(cn1)[nH]c1ccccc12 (stereo not drawn)
    17% | -5%
> COc1cc(Cl)c(CNC[C@H]2O[C@@H](n3ccc(=O)[nH]c3=O)[C@H](O)[C@@H]2O)c(Cl)c1O
    -6% | 5%
> COC(=O)C1N[C@@H]([C@@H](NC(=O)COc2ccccc2)C(=O)NCc2ccccc2)SC1(C)C (stereo partly drawn)
    -21% | -3%
> O[C@H]1CN(Cc2cccs2)[C@@H](c2ccccc2)C[C@@H]1n1cc(C2CC2)nn1
    -6% | 6%
> CCOc1ccc(CCN2C(=O)C(=O)N([C@@H](Cc3ccc(O)cc3)CN3CCC[C@H]3CN3C(=O)C(=O)NC[C@@H]3CC(C)C)C[C@@H]2Cc2ccccc2)cc1
    18% | 3%
> CC(=O)Nc1ccc(C(=O)N2CCCCC2c2cc(C(=O)NC(C)C)no2)cc1 (stereo not drawn)
    -14% | 15%
> O=C(O)c1ccccc1-c1ccc(C=c2sc3nc4cc(Br)cnc4n3c2=O)o1
    -10% | -3%[18.4 µM]
> CCN1C[C@@H]2[C@@H]3C(=O)N(C)C(=O)[C@@H]3[C@](Cc3ccccc3)(C1=O)N2C(=O)c1ccc(Cl)cc1
    -1% | -22%
> O=C(Nc1ccc([N+](=O)[O-])cc1)c1cccc([N+](=O)[O-])c1
    -9% | 3%
> CCCCCc1c(-c2ccc(OC)c(OC)c2)ncn1CCc1ccccc1OC
    ? | 0%
> F[B-](F)(F)c1cnc2ccccc2c1
    0% | -9%
> CCOC(=O)[C@]12CCC=C1N(Cc1ccccc1)C(=O)[C@H](CC(=O)NCc1ccccc1)C2
    -15% | -4%
> CC(=O)C1=CCC(c2ccc(C(C)C)cc2)N(S(=O)(=O)c2ccc(C)cc2)C1 (stereo not drawn)
    -3% | 10%
> CC1(C)CN(Cc2ccccc2)C(=O)[C@H]1CC(=O)Nc1ccc(Br)cc1
    -16% | 0%
> CC(C)C[C@@H](CNCC(=O)[C@H](CC(C)C)NC(=O)c1[nH]cnc1C(=O)N[C@H](CN)CC(C)C)NC(=O)c1nc[nH]c1C(=O)N[C@@H](CC(=O)O)C(=O)O
    -25% | 6%
> O=C(Nc1ccc(F)cc1)C(c1cccc(F)c1)N1CCN(Cc2c(F)cccc2Cl)CC1 (stereo not drawn)
    -11% | -11%
> CSc1ccc(OC2(C)CCN(Cc3ccc4c(c3)OCCO4)C2)cc1 (stereo not drawn)
    -19% | -17%
> CCOC(=O)C1=C[C@@H](C(C)(C)C)N(S(=O)(=O)c2ccc(C)cc2)[C@H]1c1ccc(C)cc1
    ? | 9%
> O=[N+]([O-])c1cccc(CN2[C@@H](Cc3ccccc3)COCCS2(=O)=O)c1
    ? | -8%
> O=C1NC[C@H](CCCCN2CCN(CCc3ccccc3)C(=O)C2=O)N(CC2CCCCC2)C1=O
    -16% | -1%
> CN(C)c1ccc(CNC(=O)C2Cc3c(-c4cccc(C(N)=O)c4)ccnc3O2)cc1 (stereo not drawn)
    6% | -9%[18.4 µM]
> C[C@H](O)[C@@H]1CN2CCc3c([nH]c4ccccc34)[C@@H]2C[C@@H]1N(C)C(=O)Nc1ccc(F)cc1
    -12% | 5%
> CNC(=S)N1CCC(C(=O)c2ccc(Cl)cc2)CC1
    -5% | 19%
> CC(=O)NC(c1ccccc1)c1nc(-c2cccc(C#N)c2)cs1 (stereo not drawn)
    -3% | -1%
> Cc1ccc(Cc2c(-c3ccco3)nc3ccc(C)cn23)cc1
    27% | ?
> CCOC(=O)c1ccc(-c2ccc(N3C(c4cccc(OC)c4)=Cc4ccc(F)cc4C3CC(C)=O)cc2)cc1F (stereo not drawn)
    -25% | 0%
> CC(=O)OCC(C)n1c(=O)c2ccccc2n1C(C)=O (stereo not drawn)
    -17% | 15%
> O=C(CCCN1C(=O)/C(=C\c2cccc(Br)c2)SC1=S)Nc1ccc(C(=O)O)cc1
    22% | -2%
> Fc1ccc(-c2ccc3nccn3c2)cc1Cl
    18% | -11%[18.4 µM]
> Cc1cc(Cl)ccc1OC(C)C(=O)Nc1cccc(S(=O)(=O)N2CCOCC2)c1 (stereo not drawn)
    -1% | -10%
> CCCCC(=O)N(C)c1c(C)nc2ccc(C(=O)N(CC)CCN(C)C)cn12
    -8% | 3%[18.4 µM]
> COc1ccc(-c2cc(NC=O)c3ncc(-c4cccc(C(=O)NCCN(C)C)c4)n3c2)cn1
    0% | -19%[18.4 µM]
> Cc1nc2ccc(C(=O)N3c4ccccc4N=C(c4ccc(C(F)(F)F)cc4)C3C(=O)NC(C)(C)C)cc2[nH]1 (stereo not drawn)
    16% | -1%
> CCOc1cc(/C=N/Nc2ccc(S(=O)(=O)Nc3ccccc3C(=O)O)cc2[N+](=O)[O-])cc(Cl)c1O
    -17% | -5%
> CC12CCC3c4ccc(O)c([N+](=O)[O-])c4CCC3C1CCC2=O (stereo not drawn)
    -2% | -8%
> CN(C(=O)c1cccc(NC(=O)Cc2ccc(NC(=O)C3CCN(S(=O)(=O)c4cccc([N+](=O)[O-])c4)CC3)cc2)c1)C1CCC1
    -9% | 0%
> CCc1ccccc1NC(=O)CCC(=O)N1CCN(C(C)=O)CC1
    -5% | 12%
> O=C(c1cnn2c(-c3ccccc3)cc(-c3ccccc3)nc12)N1CCN(Cc2ccccc2)CC1
    ? | 4%
> Cn1nc(C(C)(C)C)cc1C(=O)N1CCCCC1c1cc(C(=O)Nc2cccc3c2CCCC3)no1 (stereo not drawn)
    0% | -5%
> CC(=O)Nc1cnc(-c2ccccc2O)cn1
    -1% | 6%
> CCN1CCN(CC(=O)Nc2cccc(C)c2)C(=O)C1=O
    -13% | -3%
> C=CCNc1ncnc2c1ncn2[C@H]1CN(Cc2ccc(F)cc2)C[C@@H](CO)O1
    0% | 3%
> COC(=O)C[C@H]1CC[C@@H](NS(=O)(=O)c2ccc(C)cc2)[C@@H](CO)O1
    -10% | 8%
> O=C(NCCO)c1cccc(-c2cnc3cccnn23)c1
    -16% | 3%
> Cc1cccc(C)c1-n1nnnc1C1(C)CCC(=O)N1CCCn1ccnc1 (stereo not drawn)
    -19% | -23%
> C[C@@H]1CN([C@H](C)CO)C(=O)c2cc(Br)cnc2O[C@H]1CN(C)Cc1cccnc1
    -16% | 7%
> COC(=O)c1ccc2nc(-c3ccc(C)cc3)c(Cc3cccc(Cl)c3)n2c1
    0% | -4%

# Among those listed so far, five contain a nitro group on carbon:
# Value order – StopGo reporter | RE007 growth inh
> O=C(Nc1ccc([N+](=O)[O-])cc1)c1cccc([N+](=O)[O-])c1
    -9% | 3%
> O=[N+]([O-])c1cccc(CN2[C@@H](Cc3ccccc3)COCCS2(=O)=O)c1
    ? | -8%
> CCOc1cc(/C=N/Nc2ccc(S(=O)(=O)Nc3ccccc3C(=O)O)cc2[N+](=O)[O-])cc(Cl)c1O
    -17% | -5%
> CC12CCC3c4ccc(O)c([N+](=O)[O-])c4CCC3C1CCC2=O (stereo not drawn)
    -2% | -8%
> CN(C(=O)c1cccc(NC(=O)Cc2ccc(NC(=O)C3CCN(S(=O)(=O)c4cccc([N+](=O)[O-])c4)CC3)cc2)c1)C1CCC1
    -9% | 0%

# (continued)
# Value order – StopGo reporter | RE007 growth inh
> O=C(O)c1[nH]c(-c2ccccc2)c2c1C(=O)N(C1CC1)C2=O
    -11% | 22%
> CC(=O)Nc1ccc(C(=O)N2CCCCC2c2cc(C(=O)Nc3ccccc3)no2)cc1 (stereo not drawn)
    12% | 10%
> C#CC1(N2CCCCC2)CCCCC1
    -30% | 5%
> N#Cc1cccc(C(=O)C(=O)N2CCC(Cc3ccccc3)CC2)c1
    -6% | -8%
> COc1ccc(C(O)c2nc(-c3cnn(C)c3)cs2)cc1 (stereo not drawn)
    -7% | 9%[18.4 µM]
> c1cc(-c2cc3c(o2)CCCC3OCCN2CCOCC2)cs1 (stereo not drawn)
    -13% | -16%
> COc1ccccc1C#CC1=CC(=O)CC(C)(C)C1
    -4% | ?
> Cc1ccc(C(=O)Nc2c(-c3ccccc3)[nH][nH]c2=O)cc1
    -4% | -5%
> CC(C)NC(=O)c1ccc2sc([C@H]3C[C@H](O)[C@@H](CO)O3)nc2c1
    4% | 2%[18.4 µM]
> O=C(OCC(=O)N(CCc1ccccc1)Cc1ccccc1)c1cccc(O)c1
    ? | -10%
> N#Cc1ccc2sn(-c3ccccc3)c(=O)c2c1
    66%[activator] | 7.9µM*
> Cn1c(SCC(=O)NCCC2=CCCCC2)nnc1C(F)(F)F
    -7% | -9%
> COC1CC(N)C2OC(c3ccccc3)OCC2O1 (stereo not drawn)
    -16% | -1%
> COc1cccc(CN2CCC2(C)C(=O)Nc2ccc(C)cc2)c1F (stereo not drawn)
    -7% | -4%[18.4 µM]
> COc1ccc(CNC(=O)c2sc(=O)n(Cc3ccc(S(=O)(=O)N(C)C)cc3)c2C)cc1
    ? | 12%[18.4 µM]
> COc1ccc(S(=O)(=O)N2CCC3CC2c2cc(N4CCOCC4)ccc23)cc1 (stereo not drawn)
    -20% | 10%
> Cc1ccc(OCCNC(=O)[C@H]2O[C@@H](n3ccc(N)nc3=O)[C@H](O)[C@@H]2O)cc1C
    -9% | 10%
> O=C(C[n+]1cccc(C(=O)Nc2ccccc2)c1)c1ccc(Cl)cc1
    -24% | -8%
> O=C1NC[C@H](Cc2ccccc2)N(C[C@@H]2CCCN2C[C@H](Cc2ccc(O)cc2)N2C[C@H](Cc3ccccc3)N(CCc3ccccc3)C(=O)C2=O)C1=O
    46%[activator] | 0%
> CCOC(=O)C1(C)CCCN(C(=O)c2ccc(OC)c(OC)c2)C1 (stereo not drawn)
    17% | 10%
> CCCCNC(=O)C1c2ccccc2OCC(=O)N1CCOC (stereo not drawn)
    -24% | -12%
> Cc1cc(OCC(=O)OCC(=O)N(Cc2ccccc2)C(C)(C)C)ccc1Cl
    -24% | -1%
> COC(=O)C1(C(=O)OC)C[C@H](c2ccc(OC)cc2)N(Cc2ccccc2OC)[C@@H]1c1ccccc1
    -17% | -1%
> O=C1NC[C@@H](CCCCN2C[C@H](Cc3ccccc3)N(Cc3ccccc3)C(=O)C2=O)N(Cc2ccccc2)C1=O
    16% | -12%
> CC1(C(=O)NS(=O)(=O)c2cccc(F)c2)CCN1C(=O)Cc1ccc(Cl)cc1Cl (stereo not drawn)
    47%[activator] | 8%
> CC(C)(C)NC(=O)C(c1ccncc1)n1c(=O)c(-c2ccccc2)nc2ccccc21 (stereo not drawn)
    13% | -8%
> CCCNC(=O)N1C[C@H](O)COC[C@@H]2O[C@@H](CC(=O)NCCCN3CCOCC3)CC[C@H]21
    -15% | -1%
> C[C@H]1CN([C@@H](C)CO)C(=O)CCCn2cc(nn2)CO[C@@H]1CN(C)S(=O)(=O)c1ccc(Oc2ccccc2)cc1
    -20% | -2%
> CN(C)C(CNC(=O)C1CCN(S(=O)(=O)c2cc(Cl)ccc2Cl)CC1)Cc1ccccc1 (stereo not drawn)
    -26% | -2%
> O=C(c1cccs1)N1C[C@H](n2cc(C3CC3)nn2)[C@@H](O)C[C@@H]1c1ccc(Cl)cc1
    -14% | 36%
> CCc1c(C2(O)CCCCC2)[nH]c2ccc(C#N)cc12
    ? | 1%
> CCCCCCN1C[C@H](n2cc(-c3ccc(F)cc3)nn2)[C@@H](O)C[C@@H]1c1ccccc1
    -27% | -6%
> COc1ccc(-c2csc(C(O)c3ccc(F)c(F)c3)n2)cn1 (stereo not drawn)
    -7% | -16%
> O=C(Nc1ccc([N+](=O)[O-])cc1Cl)c1cccc([N+](=O)[O-])c1
    5% | 1%

# Assay outcomes deposited in PubChem by National Center for Advancing Translational Sciences (NCATS).
